Compound activity deposited in PubChem BioAssay by Johns Hopkins Ion Channel Center.
KCNQ2 inh = KCNQ2 potassium channel inhibitors, primary screen, cell-based, CHO-K1, FluxOR thallium flux, B-score (AID 2156); 1.1% of 310,000 active; B-score at 10 µM; O88943; 20 min; active compounds read low; only compounds with negative scores are shown here; some inactives read as strong as hits;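 active means fluorescence ratio B-score at most minus 3 library SDs, with starting brightness B-score within 2 library SDs, cut at about -5.5 in these data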
Target sequence (O88943 whole entry, looked up): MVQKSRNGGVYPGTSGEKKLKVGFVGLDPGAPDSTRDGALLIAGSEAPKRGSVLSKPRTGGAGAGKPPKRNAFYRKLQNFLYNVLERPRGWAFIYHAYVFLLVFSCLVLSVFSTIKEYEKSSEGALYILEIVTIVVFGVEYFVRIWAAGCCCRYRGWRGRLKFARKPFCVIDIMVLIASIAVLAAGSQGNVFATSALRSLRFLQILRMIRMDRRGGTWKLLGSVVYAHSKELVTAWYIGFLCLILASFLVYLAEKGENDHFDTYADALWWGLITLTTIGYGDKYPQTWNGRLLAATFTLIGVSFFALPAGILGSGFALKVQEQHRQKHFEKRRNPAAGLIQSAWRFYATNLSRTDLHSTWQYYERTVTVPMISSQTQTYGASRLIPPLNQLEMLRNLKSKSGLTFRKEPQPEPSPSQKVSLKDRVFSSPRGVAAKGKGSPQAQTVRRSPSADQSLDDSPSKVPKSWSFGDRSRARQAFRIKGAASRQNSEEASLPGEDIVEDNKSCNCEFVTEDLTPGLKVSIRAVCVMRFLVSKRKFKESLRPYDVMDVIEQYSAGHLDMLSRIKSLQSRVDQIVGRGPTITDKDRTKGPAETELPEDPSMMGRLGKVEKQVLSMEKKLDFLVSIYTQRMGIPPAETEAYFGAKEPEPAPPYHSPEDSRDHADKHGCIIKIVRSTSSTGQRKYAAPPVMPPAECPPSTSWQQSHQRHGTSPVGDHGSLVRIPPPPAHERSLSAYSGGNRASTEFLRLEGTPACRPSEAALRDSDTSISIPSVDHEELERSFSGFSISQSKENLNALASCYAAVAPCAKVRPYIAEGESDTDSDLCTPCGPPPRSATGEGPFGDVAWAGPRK
KCNQ2 inh baseline = further read-out of KCNQ2 inh, marked with its call; B-score; measured here: initial fluorescence intensity artifact check;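 brightness before thallium and not channel activity; 0 = typical well and far values either way flag optical interference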
Starred values were filed as active, the others as inactive; i = inactive.

Every second line gives: KCNQ2 inh	KCNQ2 inh baseline
- COc1ccc(Br)cc1S(=O)(=O)N1CCCc2ccccc21
  i	0.55
- CC(C)NC(=O)c1onc(CSc2ccc(C(C)C)cc2)c1C(=O)O
  i	-0.86
- Cc1csc(NC(=O)C2CCCCC2)n1
  i	2.18
- Cc1nc2c(C#N)c[nH]n2c(=O)c1Cc1ccccc1
  i	0.81
- CCn1c2ccccc2c2cc(NC(=O)C(C)Oc3ccccc3)ccc21 (configuration not stated)
  i	-2.39
- COc1ccc(OCc2cc(C(=O)N3CCOCC3)no2)c(Cl)c1
  i	0.18
- COc1ccc(N2CCN(C(=O)c3c(-c4c(F)cccc4Cl)noc3C)CC2)cc1
  i	0.59
- O=C1CCCC2=C1C(c1ccc(Cl)cc1)N1C(=O)CCSC1=N2 (configuration not stated)
  i	-0.01
- COc1cc(NC(=O)CCNC(=O)Cn2cnc3ccccc3c2=O)cc(OC)c1OC
  i	-0.93
- Cc1onc(-c2c(F)cccc2Cl)c1C(=O)OCc1cnc(Cl)s1
  i	1.41
- Cc1ccc(-c2csc3ncnc(Oc4cccc5ccc(C)nc45)c23)cc1
  i	0.07
- O=c1[nH]c(Nc2ccc(F)cc2)cc2ccccc12
  i	0.02
- CCOc1ccc(N2CC(=O)N/C2=N\c2nc(C)cc(C)n2)cc1
  i	-0.53
- COC(=O)c1cn(CC(=O)N2C(C)CCCC2C)c2ccccc12 (configuration not stated)
  i	-2.16
- O=C(Nc1ccc2c(c1)OCO2)c1ccc(COc2ccc3c(c2)CCC3)o1
  i	0.99
- C=CCNc1nc(-c2ccc([N+](=O)[O-])cc2)cs1
  i	-0.95
- O=C(OCc1cccc(C(F)(F)F)c1)c1cc([N+](=O)[O-])ccc1N1CCOCC1
  i	-0.06
- CCCCNC(=O)NC(C(=O)OC)C12CC3CC(CC(C3)C1)C2 (configuration not stated)
  i	-3.01
- O=C(NCc1ccccc1)C1=C[C@@H](c2ccccc2)C[C@@H](OCc2ccc(CO)cc2)O1
  i	1.63
- COc1ccc2nc(N3CCC(C)CC3)c(C#N)cc2c1
  i	0.95

In a second layout: 2 of the compounds above
COc1ccc(Br)cc1S(=O)(=O)N1CCCc2ccccc21
  KCNQ2 inh = i; KCNQ2 inh baseline = 0.55
CC(C)NC(=O)c1onc(CSc2ccc(C(C)C)cc2)c1C(=O)O
  KCNQ2 inh = i; KCNQ2 inh baseline = -0.86

(cont.)
Every second line gives: KCNQ2 inh	KCNQ2 inh baseline
- O=C(Nc1ccc2ccccc2n1)c1ccccc1Br
  i	-0.18
- CC(C)(Oc1ccc(Cl)cc1)C(=O)NNC(=O)c1ccc(Br)o1
  i	2.04
- O=C(Nc1ccccc1)C1C(c2ccccc2)C1(Cl)Cl (configuration not stated)
  i	-2.29
- Oc1ccc(-c2[nH]ncc2-c2cccc3cccnc23)c(O)c1
  i	-0.81
- COC(=O)c1ccc(/C=N/OCC(=O)Nc2cc(F)ccc2F)cc1
  i	1.1
- CCC(Cc1ccccc1)NC(=O)/C=C/c1ccco1 (configuration not stated)
  i	-0.17
- COC(=O)c1ccc(NC(=O)c2ccc[n+]([O-])c2)cc1
  i	0.26
- COc1cccc(CN(C)C(=O)c2ccc(COc3ccc(Cl)cc3)cc2)c1OC
  i	2.47
- CCNS(=O)(=O)c1ccc(NC(=O)c2c(-c3ccccc3)noc2C)cc1
  i	-0.19
- COC(=O)c1sccc1NC(=O)c1ccc(OC)cc1
  i	5.06
- O=[N+]([O-])c1ccc(N2CCc3ccccc3C2)cc1
  -7.08*	-1.83*
- CCOc1ccc(S(=O)(=O)n2cc(F)c(=O)[nH]c2=O)cc1
  i	0.79
- COc1ccccc1CNC(=O)CN1C(=O)c2ccc([N+](=O)[O-])cc2C1=O
  i	2.11
- CCN1CCN(Cc2ccc(NC(=O)c3ccc(C)c(NC(=O)c4ccc5n[nH]nc5c4)c3)cc2C(F)(F)F)CC1
  i	1.93
- CCCNC(=O)c1onc(CSc2ccc(Cl)cc2)c1C(=O)NCC1CC1
  i	-0.03
- COc1ccccc1N1CCN(CC(=O)Nc2ccc(-n3cnnn3)cc2)CC1
  i	0.22
- C=CCN(CC=C)S(=O)(=O)c1ccc(NC(=S)NC(=O)C2CC2)cc1
  i	1.37
- O=C(CN1C(=O)COc2ccccc21)NCCCN1CCN(c2ccccc2F)CC1
  i	-0.65
- CCCN1CCc2c(sc(NC(=S)NC(=O)c3ccccc3)c2C#N)C1
  i	0.97
- Cc1cccc(OCc2nnc(SCC(=O)N3c4ccccc4CCc4ccccc43)o2)c1
  -7.3*	0.5*

Look-ups from the list:
For KCNQ2 inh baseline, O=C(CN1C(=O)COc2ccccc21)NCCCN1CCN(c2ccccc2F)CC1 has -0.65
For KCNQ2 inh baseline, CCCN1CCc2c(sc(NC(=S)NC(=O)c3ccccc3)c2C#N)C1 has 0.97
For KCNQ2 inh baseline, CCN1CCN(Cc2ccc(NC(=O)c3ccc(C)c(NC(=O)c4ccc5n[nH]nc5c4)c3)cc2C(F)(F)F)CC1 has 1.93
For KCNQ2 inh baseline, CCNS(=O)(=O)c1ccc(NC(=O)c2c(-c3ccccc3)noc2C)cc1 has -0.19

Further records
Every second line gives: KCNQ2 inh	KCNQ2 inh baseline
- CCOc1ccccc1C(=O)Nc1cccc(-c2ccc(N3CCOCC3)nn2)c1
  i	1.8
- CCn1c(COC(=O)CNC(=O)c2ccccc2F)nc2cc(S(=O)(=O)N(C)C)ccc21
  i	0.23
- CCN(CC)c1ccc(/C=N/N2CCN(Cc3ccccc3)CC2)cc1
  i	-0.49
- CCCNC(=O)c1ccc(N2CCC3(CC2)CC(c2cccc(Br)c2)=NO3)c(NC(=O)c2cccc(OC)c2)c1
  i	-0.13
- COc1ccc(-c2nc(CN3CCC(C(=O)N4CCOCC4)CC3)c(C)o2)c(OC)c1
  i	0.87
- COc1ccc(OC)c(S(=O)(=O)Nc2ccc(C)c(C)c2)c1
  i	-0.23
- COc1ccc2nc3ccccc3nc2c1NC(=O)c1ccccc1Cl
  i	0.26
- Cc1c(C)c2c(OCC(=O)O)cc3c(c2oc1=O)CCC(C)(C)O3
  i	-0.22
- CCOc1ccccc1NC(=O)Cn1nc(-c2ccco2)ccc1=O
  i	-1.04
- Cc1ccc(-n2cc(S(=O)(=O)c3ccc(C)cc3)[nH]c2=O)cc1
  i	-0.2
- Oc1ccccc1OCCOc1ccccc1OCCOc1ccccc1O
  i	0.98
- CCOC(=O)CN(C(=O)COc1nc(-c2ccccc2)cc(C)c1C#N)c1cccc(OC)c1
  i	-0.41
- Cc1ccccc1CN1C[C@@H]2C[C@@H](c3cnc(N4CCOCC4)s3)N3CCC[C@@]23C1=O
  i	1.43
- CCCC(=O)c1ccc(N2CCN(S(=O)(=O)c3ccc(C)cc3)CC2)c(F)c1
  i	-0.1
- O=C(c1ccccc1F)N1CCN(c2ccc([N+](=O)[O-])c(N3CCOCC3)c2)CC1
  i	0.34
- Cc1cc(C)nc(-n2nc(C)cc2NC(=O)CNCc2ccccc2)n1
  i	-0.31
- COc1ccc(N(C(=O)Cn2nnc3ccccc32)C(C(=O)NC(C)(C)C)c2ccc(OC)c(O)c2)cc1 (configuration not stated)
  i	-0.36
- COc1ccc(/C=C2\N=C(C)N(c3ccc4ccccc4c3)C2=O)cc1OC
  i	1.99
- Cc1cc(OCCCCN2C(=O)NC(C)(C)C2=O)ccc1[N+](=O)[O-]
  i	-0.51
- CCOc1ccc(NC(=O)c2cccc(NC3=NC4CS(=O)(=O)CC4S3)c2)cc1 (configuration not stated)
  i	-0.33

Carrying on.
Every second line gives: KCNQ2 inh	KCNQ2 inh baseline
- COc1ccc(OCCCN2CCCC(C)C2)cc1 (configuration not stated)
  i	2.34
- COc1ccc(C2=CC3=C(Br)C(=O)C(C)(OC(=O)c4ccco4)C(=O)C3=CO2)cc1 (configuration not stated)
  i	1.37
- CCN1CCN(CCNC(=O)c2ccc3c(c2)NC(=O)/C(=C\c2ccc(OC)c(OC)c2)S3)CC1
  i	-1.49
- COc1cccc(CN2CCN(C(=O)CC(C)C)CC2)c1
  i	0.92
- O=C(O)c1ccc(Br)c(S(=O)(=O)N2CCCC2)c1
  i	-1.64
- Cc1ccc(SCC(=O)NCCSCc2ccccc2)cc1
  i	0.04
- CC1(C)Cc2ccccc2C(N)=C1C#N
  i	-1.83
- CCCCCOc1ccc(Br)cc1/C(C)=N/NC1=NCCN1
  i	0.2
- CN(C(=O)CN1C(=O)/C(=C/c2ccc(F)cc2)SC1=S)C1CCS(=O)(=O)C1 (configuration not stated)
  i	1.31
- O=C(c1ccc([N+](=O)[O-])cc1)N1CCN(C(=O)c2ccco2)CC1
  i	0.67
- CC(=O)c1ccc(OCCCC(=O)Nc2cccc(-c3nn[nH]n3)c2)cc1
  i	-0.1
- COc1ccccc1/C=C/C(=O)Oc1cccc2cccnc12
  i	0.05
- COc1ccc(CCNC(=O)c2cc(S(=O)(=O)N3CCCC3)cn2C)cc1OC
  i	0.21
- C1=CCC(CN2CCN(C3CCCCCC3)CC2)CC1 (configuration not stated)
  i	-0.01
- COc1ccc(CN(C)C(=O)c2[nH]c(C)c(C(C)=O)c2C)cc1F
  i	-1.24
- CCOc1ccc(-n2c(C)c(C(=O)OC)c3cc(O)ccc32)cc1
  i	0.02
- COc1cc2c3c(c1)C1(C(=O)N3C(C)(C)C=C2C)C(C#N)=C(N)Oc2cc(O)ccc21 (configuration not stated)
  i	0.47
- N#Cc1nc(-c2ccccc2F)oc1N1CCCC1
  i	1.16
- COC(=O)c1ccc(CSc2nccn2C)cc1
  i	-0.49
- Cc1cccc(NC(=S)NCCc2ccc(S(N)(=O)=O)cc2)c1C
  i	-1.37

Other results follow.
Every second line gives: KCNQ2 inh	KCNQ2 inh baseline
- N#C/C(=C\c1cc(Cl)cc(Cl)c1O)C(=O)NC1CCCCC1
  -5.68*	0.48*
- CC(NC(=O)CN1CCOCC1)c1ccc(F)cc1 (configuration not stated)
  i	-0.94
- CCc1nnc(NC(=O)CSc2nnc(Cc3ccccc3)n2-c2ccc(OC)cc2)s1
  i	0.87
- CC(=O)Oc1cccc(N2C(=O)c3ccc(C(=O)Nc4c[nH]c(=O)[nH]c4=O)cc3C2=O)c1
  i	0.71
- CC(C)(O)C#Cc1ccc(CN2CCCC(CO)(Cc3cccc(Cl)c3)C2)cc1 (configuration not stated)
  i	0.88
- CCOC(=O)C(=O)c1csc(NC(=O)COc2ccc(N(C)S(=O)(=O)c3ccc(F)cc3)cc2)n1
  i	-1.31
- CCOC(=O)c1ccccc1NC(=O)C=C(C)C
  i	-0.37
- COc1ccc2c(C(=O)c3ccc(C)cc3)n(CCCC(N)=O)[n+]([O-])c2c1
  i	1.41
- Nc1n[nH]c(N)c1N=Nc1cccc(C(F)(F)F)c1
  i	1.12
- CCN(CC)C(=O)C1CCCN(C(=O)Nc2ccc3nsnc3c2)C1 (configuration not stated)
  i	-0.34
- Cc1cc(Cl)ccc1OCC(=O)Nc1ccccc1N1CCOCC1
  i	0.9
- COc1ccccc1NC(=O)Nc1ccccc1Br
  i	1.18
- CCC(OC(=O)CNS(=O)(=O)c1ccccc1)C(=O)c1ccccc1 (configuration not stated)
  i	0.04
- CCOC(=O)c1cnc2ccc(OC)cc2c1Nc1ccc(N2CCN(C)CC2)cc1
  i	0.81
- c1ccc(-c2noc(CC3CCCCC3)n2)nc1
  i	0.01
- O=C(COc1ccccc1Cl)NCC(c1cccs1)N1CCOCC1 (configuration not stated)
  i	0.52
- COc1ccc(S(=O)(=O)Nc2ccccc2C(=O)NCc2ccco2)cc1Br
  i	-3.44
- Cc1nc2cc(-c3cccc(F)c3)nn2c(C)c1CCC(=O)NC(C)c1ccc2c(c1)OCCO2 (configuration not stated)
  i	-0.49
- CC(C)CNc1cc(=O)n(C)c(=O)n1C
  i	0.06
- COc1cc(C(=O)Nc2cccc(-c3nc4ccccc4o3)c2C)cc(OC)c1OC
  i	-0.52

Complete entries from above.
Record of CCN(CC)C(=O)C1CCCN(C(=O)Nc2ccc3nsnc3c2)C1 (configuration not stated) : KCNQ2 inh: i; KCNQ2 inh baseline: -0.34
Record of Cc1nc2cc(-c3cccc(F)c3)nn2c(C)c1CCC(=O)NC(C)c1ccc2c(c1)OCCO2 (configuration not stated) : KCNQ2 inh: i; KCNQ2 inh baseline: -0.49
Record of CCOC(=O)c1cnc2ccc(OC)cc2c1Nc1ccc(N2CCN(C)CC2)cc1 : KCNQ2 inh: i; KCNQ2 inh baseline: 0.81

More entries
Every second line gives: KCNQ2 inh	KCNQ2 inh baseline
- Nc1cc(=O)[nH]c(SCC(=O)N2N=C(c3ccc(Cl)cc3)CC2c2ccco2)n1 (configuration not stated)
  i	-1.32
- COC(=O)c1nc2nc(C)cc(=O)n2[nH]1
  i	0.87
- COc1ccc([N+](=O)[O-])c2c(=O)ccoc12
  i	0.23
- CC1CN2C(c3ccc([N+](=O)[O-])cc3)=CSC2=N1 (configuration not stated)
  i	0.38
- Cc1cc2ccccc2cc1CN1CCCCC1
  i	1.32
- CCSc1nnc(NC(=O)C(C)(C(F)(F)F)C(F)(F)F)s1
  i	-0.33
- COc1ccc(-n2c(SCC(=O)c3ccc[nH]3)nnc2-c2ccccc2)cc1
  i	-1.31
- Cc1ccc(S(=O)(=O)NCC(c2cccnc2)N2CCc3ccccc32)cc1 (configuration not stated)
  i	-1.22
- COc1cc(S(=O)(=O)N2CCCCC2)ccc1NC(C)=O
  i	-0.6
- C/C(Cc1ccccc1)=N\NC(=O)CNC(=O)c1ccc2c(c1)OCCO2
  i	-1.1
- Cc1ccc(OP(=O)(Nc2c(C)n(C)n(-c3ccccc3)c2=O)Oc2ccc(C)cc2)cc1
  i	-0.61
- CC1(C)C(=O)OC(c2c(F)c(F)c(F)c(F)c2F)C2(CCCCC2)C1=O (configuration not stated)
  i	-0.4
- O=C(O)CSc1nnc(Cn2nnc3ccccc32)n1CCc1ccccc1
  i	3.24
- CN(c1ccccc1)c1nc(N)c([N+](=O)[O-])c(Nc2ccccc2)n1
  i	-0.49
- COc1ccc(CCNC(=O)Cn2ccc3c(OC)cccc3c2=O)cc1OC
  i	2.12

Some of the compounds tested. The share of hits here may be higher or lower than overall.
